# GIV Gai3 FP = blocks GIV peptide binding to rat Galpha-i3; Galpha-i3/FITC-GIV peptide fluorescence polarization, 90 min; active compounds read low; scaled: aluminum fluoride 0%, vehicle 100%; percent of control (FP), % (no concentration beside the values); 0.42% of 210,000 active; AID 1224905;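 active = replicate mean at 85% of control or lower, very high polarization wells dropped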;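 note: wells of about 15 µL received 100 nL stock; the first replicate is given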
# Target sequence (P08753 whole entry, looked up): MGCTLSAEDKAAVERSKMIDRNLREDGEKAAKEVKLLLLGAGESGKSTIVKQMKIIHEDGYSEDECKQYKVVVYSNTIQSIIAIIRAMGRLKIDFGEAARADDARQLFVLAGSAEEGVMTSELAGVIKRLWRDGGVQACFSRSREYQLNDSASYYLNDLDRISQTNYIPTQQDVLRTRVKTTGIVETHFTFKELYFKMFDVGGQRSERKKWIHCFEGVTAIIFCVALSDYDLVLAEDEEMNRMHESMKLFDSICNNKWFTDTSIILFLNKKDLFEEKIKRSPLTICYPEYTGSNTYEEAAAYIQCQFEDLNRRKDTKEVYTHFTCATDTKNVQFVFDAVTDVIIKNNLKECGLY
# Sa growth 42C = blocks Staphylococcus aureus growth; S. aureus RN4220 growth, OD600, 20 h, 42 °C; active compounds read low; relative growth, % (concentration not given with the values); 0.53% of 170,000 active; AID 720641;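 active = growth at 42 °C up to 50% and 20 or more points under that at 30 °C, or under 10% at both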;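 note: 300 nL library stock went into each well; scaled to the means of positive and negative controls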
# HCMV UL50-53 inh = cytomegalovirus nuclear egress complex inhibition | HTRF UL50-UL53 interaction, normalized percent inhibition | inhibition, % (concentration not given with the values) | 0.15% of 190,000 active | AID 1918969;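 active = both replicates at 50% or more, plus weaker picks with an unusually low signal ratio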;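 note: stock transfer was 100 nL into about 20 µL; 0% = negative control wells and 100% = wells with untagged competitor protein; inactives centre near -12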
# Sa growth 42C second temp = recorded beside Sa growth 42C, whose call it bears; relative growth, %; measured here: growth at 30 °C;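 optical density after 20 h as mean of two plates; 100% = untreated growth and lower means inhibition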
# The depositor's hits bear a star; . = no result given; & = joins results of further samples.
# Start of the data: the first 2 compounds as a preview:
SMILES,GIV Gai3 FP,Sa growth 42C,Sa growth 42C second temp,HCMV UL50-53 inh
N#Cc1c(C(F)(F)F)cc(-c2cccs2)nc1SCc1ccccc1F,104,93,89,-28
CCOC(=O)c1c(-c2ccccc2)oc2c1cc(OC(=O)c1ccc(Cl)cc1)c1ccccc12,99,.,.,-15

# All compounds of this part (from the top)
SMILES,GIV Gai3 FP,Sa growth 42C,Sa growth 42C second temp,HCMV UL50-53 inh
N#Cc1c(C(F)(F)F)cc(-c2cccs2)nc1SCc1ccccc1F,104,93,89,-28
CCOC(=O)c1c(-c2ccccc2)oc2c1cc(OC(=O)c1ccc(Cl)cc1)c1ccccc12,99,.,.,-15
Cc1cc2c(C)nc(-c3ccccc3)nc2o1,107,105,84,-1
OCCCCNc1cccc2ccccc12,114,85,27,-9
O=C1c2cnccc2CN1c1cc(F)ccc1F,108,.,.,35*
Cc1noc(Cn2c(=O)c3ccccc3n(CC(=O)Nc3cc(Cl)ccc3C)c2=O)n1,103,107,91,.
COc1ccc(N2CCN(C(C)C(=O)N3CCCC3)CC2)cc1 (stereo unspecified),96,90,86,-4
COc1ccc2[nH]cc(S(=O)(=O)c3ccccc3)c(=O)c2c1,100,87,82,-8
CC1=C(C(=O)OCc2ccc(C)cc2)C(c2ccccc2F)CC(=O)N1 (stereo unspecified),111,103,95,-3
CC1(C)c2cc(Cl)ccc2-n2c1cc(O)c(-c1ccccc1)c2=O,111,54,47,-28
CC(=O)N1c2ccc(S(=O)(=O)N3CCCC3C(=O)N3CCN(c4ccccc4)CC3)cc2CC1C (stereo unspecified),108,101,85,-12
Cc1nc2ccccc2n(CC(=O)Nc2cc(Cl)cc(Cl)c2)c1=O,.,85,91,-19
Oc1cc2[nH]c3ccccc3c2cc1CN1CCOCC1,.,101,88,-3
COc1ccc(-c2c(C#N)c(N)nc3sc(C(N)=O)c(N)c23)cc1OC,103,.,.,-73
O=C(Cn1cc2c(n1)CCCCC2)NCc1ccccc1,100,89,84,3
COc1ccc(-c2cc3nc(C)c(CCC(=O)N4CCN(c5ccccc5)CC4)c(C)n3n2)c(OC)c1,105,121,91,-21
Cc1ccc(C(=O)OCC(=O)Nc2ccccc2C)cc1C,.,74,87,1
CCNc1nc(Oc2ccc(=O)[nH]n2)nc(N2CCOCC2)n1,101,91,97,.
Cn1c(=O)c(=O)n(C)c2cc(S(=O)(=O)N3CCCC3C(=O)Nc3ccc(F)cc3)ccc21 (stereo unspecified),103,92,93,-5
CN(c1ncnc2c1nc1n2CCCCC1)C1CCCCC1,102,73,42,.
COC(=O)c1cc2sccc2n1CC(=O)Nc1ccc(OC)c(OC)c1,103,117,89,-24
Cc1[nH]c(=S)[nH]c1C12CC3CC(CC(C3)C1)C2,100,105,83,.
COc1ccc(S(=O)(=O)c2nnn(-c3ccc(C(C)C)cc3)c2C)cc1,106,109,91,-20
CSc1ncc(C(=O)Nc2ccccc2C(F)(F)F)c(-c2ccccc2)n1,97,122,112,.
CCC(=O)NC(c1ccccc1)c1nc2ccccc2[nH]1 (stereo unspecified),108,92,87,.
O=C(O)C1Cn2c(nc3c(c2=O)C2(CCCC2)Cc2ccccc2-3)S1 (stereo unspecified),94,128,97,-12
COc1cc(NC(=O)c2ccc(-c3nc(CSc4ccccc4)c(C)o3)cc2)cc(OC)c1,114,100,82,.
COc1cccc(NC(=O)c2ccc3c(c2)CCN3S(C)(=O)=O)c1,101,93,93,-5
Cn1ccc2cc(S(=O)(=O)N3CCC(C(=O)NCC4CCCO4)CC3)ccc21 (stereo unspecified),105,.,.,-19
COC(=O)c1ccc(COc2cc(O)c3c(=O)cc(-c4ccccc4)oc3c2)cc1,97,.,.,1
Cc1cccc(-n2ncc(C(=O)N3CCc4ccccc4C3)c2C2CCN(C(=O)OC(C)(C)C)CC2)c1,111,101,107,.
O=C(N1CCN(c2nc(-c3ccccc3)c3cc([N+](=O)[O-])ccc3n2)CC1)C(F)(F)F,102,.,.,-23
COc1cc(/C=C2/C(=O)N(c3ccc(C(C)=O)cc3)N=C2C)ccc1OCc1ccccc1,108,.,.,-16
CC1(C)Cc2c(ccc3ccccc23)C(=NCCC(=O)O)N1,101,111,85,.
C=CCn1c(O)c(N=NC(=O)OC)c2cc(Br)ccc21,97,82,53,-50
Nc1c(C(=O)NCc2ccccc2)c2nc3ccccc3nc2n1/N=C/c1ccco1,104,105,88,3
CC(C)(C)c1nc2ccc(N)cc2[nH]1,101,94,88,.
Cc1cccc(CC(=O)NCc2ccc3[nH]c(C)cc3c2)c1,105,103,90,.
O=c1cc(CSc2ncn[nH]2)[nH]c2ccc(F)cc12,105,98,91,.
Cc1nc(N2CCCCC2)sc1C1Sc2ccccc2NC1=O (stereo unspecified),.,88,102,-16
CCCSc1nnc2c(n1)OC(c1ccc(Br)s1)Nc1ccccc1-2 (stereo unspecified),96,96,86,-7
CNC(=O)CCc1nc(-c2ccccc2)no1,89,92,88,.
O=C(Nc1nn2cnnc2s1)c1ccc(S(=O)(=O)N2CCc3ccccc3C2)cc1,.,97,93,-28
CC(=O)NCCOc1c(C)cccc1C,.,95,77,-7
O=C(O)CCC(=O)N1CCOCC1,.,105,102,20
Nc1ccccc1NS(=O)(=O)c1cccs1,.,105,81,14
Cc1cc(OCC(=O)N(Cc2ccc(N(C)C)cc2)C2CCS(=O)(=O)C2)cc(C)c1Cl (stereo unspecified),108,128,88,20
COc1cc(/C=c2\sc3nc4ccccc4n3c2=O)c(Br)cc1OCC(=O)O,109,.,.,-3
O=C(CN1C(=O)/C(=C\c2ccc(F)cc2)Oc2ccccc21)NCC1CCCO1 (stereo unspecified),97,94,97,1
COc1ccc(N(CC(=O)N2CCN(c3ccc(F)cc3)CC2)S(=O)(=O)c2c(C)nn(C)c2C)cc1,105,104,89,-29

# Going on with the list:
SMILES,GIV Gai3 FP,Sa growth 42C,Sa growth 42C second temp,HCMV UL50-53 inh
CCCCCn1c(=O)[nH]c2cc(C(=O)NCc3ccccc3)ccc2c1=O,103,90,91,-33
N[C@@H](Cc1cnc[nH]1)C(=O)O,95,.,.,-12
O=C(O)CC1(CC(=O)Nc2ccc3c(c2)OCCCO3)CCCCC1,98,119,95,0
N#CC1(NC(=O)CSc2nc3ccccc3o2)CCCCC1,.,98,92,-6
COc1ccc(CNC(=O)C(C)Sc2nc(C)c(C)n2CC(C)C)cc1 (stereo unspecified),.,94,81,-19
Brc1ccc(-c2nnc(SCCC3OCCCO3)o2)cc1,94,86,52,-18
Cc1csc2nc(COC(=O)CNC(=O)c3ccc(F)cc3)cc(=O)n12,103&99,81,84,-26
c1ccc(OCc2nn3c(-c4ccccn4)nnc3s2)cc1,103,.,.,2
CCn1c(=O)[nH]c2ccc(S(=O)(=O)N(C)C)cc21,.,99,90,-17
O=C1CCC(=O)N1c1nc2n(n1)C(c1ccccc1Cl)C=C(c1ccc(Cl)cc1)N2 (stereo unspecified),101,.,.,-33
Cc1occc1C(=O)NN=C1c2ccccc2-c2ccccc21,100,99,53,-21
CCOc1ccc(CCNC(=O)c2ccc3c(c2)NC(=O)C2CCCN32)cc1OCC (stereo unspecified),109&114,103,87,0&-21
CN(CC1COc2ccccc2O1)C(=O)NC12CC3CC(CC(C3)C1)C2 (stereo unspecified),.,99,91,3
O=C(Nc1ccc(F)cc1)c1cc2ccccn2n1,105,.,.,-23
CCOC(=O)c1c(NC(=O)OC)sc2c1CCCC2,.,88,91,-10
S=C1CC(c2ccccc2)Sc2ccccc2N1 (stereo unspecified),103,101,90,-15
COc1cc2c(cc1OC)CN(C(=O)C1CCCN(C(=O)c3ccc(Cl)cc3)C1)CC2 (stereo unspecified),.,106,95,1
COc1cc(NC(=O)N2CCC3(CC2)Nc2ccccc2-n2cccc23)cc(OC)c1OC,101,108,93,.
CCOc1cc2[nH]c(=S)n(CCCN3CCC(C)CC3)c(=O)c2cc1OCC,107,97,96,-6
C=C(C)Cn1c(CCCNC(=O)c2ccccc2OC)nc2ccccc21,102,109,74,.
COC(=O)c1ccsc1NC(=O)Cn1c2ncccc2c(=O)n1-c1ccc(C)c(C)c1,106,.,.,-15
CC(C)N=C1NC(=NC(C)C)c2ccccc21,.,105,93,-35
COc1cccc(CNC(=O)CCCN2C(=O)c3cccnc3Oc3ccc(Cl)cc32)c1,101&100,102,75,-27&11
Cc1ccccc1Nc1nc(N)nc(COC(=O)Cc2cccs2)n1,.,92,89,-21
Cc1ccsc1C(O)c1nnc(-c2ccccc2)o1 (stereo unspecified),.,81,89,-14
CSc1cccc(NC(=O)/C=C/c2ccc(C(C)C)cc2)c1,105,79,89,-11
O=C(CN1C2=NCCN2c2ccccc21)c1ccc(Cl)cc1Cl,98,65,65,.
Cc1[nH]nc2c1C(c1ccc(C(=O)O)cc1)CC(=O)N2 (stereo unspecified),95,.,.,-23
CC(Sc1nnc(-c2cccs2)n1C1CC1)c1nnc(-c2cccs2)o1 (stereo unspecified),.,93,89,-12
O=C(O)C1CCCN1C(=O)c1ccco1 (stereo unspecified),102,94,83,12

# Arranged by heavy-atom count (low to high): 18 of the compounds above
SMILES,GIV Gai3 FP,Sa growth 42C,Sa growth 42C second temp,HCMV UL50-53 inh
CC(C)(C)c1nc2ccc(N)cc2[nH]1,101,94,88,.
O=C(O)C1CCCN1C(=O)c1ccco1 (stereo unspecified),102,94,83,12
Nc1ccccc1NS(=O)(=O)c1cccs1,.,105,81,14
Cc1cc2c(C)nc(-c3ccccc3)nc2o1,107,105,84,-1
O=c1cc(CSc2ncn[nH]2)[nH]c2ccc(F)cc12,105,98,91,.
Brc1ccc(-c2nnc(SCCC3OCCCO3)o2)cc1,94,86,52,-18
Cc1ccc(C(=O)OCC(=O)Nc2ccccc2C)cc1C,.,74,87,1
COc1ccc(N2CCN(C(C)C(=O)N3CCCC3)CC2)cc1 (stereo unspecified),96,90,86,-4
CC1(C)c2cc(Cl)ccc2-n2c1cc(O)c(-c1ccccc1)c2=O,111,54,47,-28
CCCSc1nnc2c(n1)OC(c1ccc(Br)s1)Nc1ccccc1-2 (stereo unspecified),96,96,86,-7
CC1=C(C(=O)OCc2ccc(C)cc2)C(c2ccccc2F)CC(=O)N1 (stereo unspecified),111,103,95,-3
CSc1ncc(C(=O)Nc2ccccc2C(F)(F)F)c(-c2ccccc2)n1,97,122,112,.
Cn1ccc2cc(S(=O)(=O)N3CCC(C(=O)NCC4CCCO4)CC3)ccc21 (stereo unspecified),105,.,.,-19
O=C(CN1C(=O)/C(=C\c2ccc(F)cc2)Oc2ccccc21)NCC1CCCO1 (stereo unspecified),97,94,97,1
COC(=O)c1ccc(COc2cc(O)c3c(=O)cc(-c4ccccc4)oc3c2)cc1,97,.,.,1
Cc1noc(Cn2c(=O)c3ccccc3n(CC(=O)Nc3cc(Cl)ccc3C)c2=O)n1,103,107,91,.
COc1cccc(CNC(=O)CCCN2C(=O)c3cccnc3Oc3ccc(Cl)cc32)c1,101&100,102,75,-27&11
Cc1cccc(-n2ncc(C(=O)N3CCc4ccccc4C3)c2C2CCN(C(=O)OC(C)(C)C)CC2)c1,111,101,107,.

# More results:
SMILES,GIV Gai3 FP,Sa growth 42C,Sa growth 42C second temp,HCMV UL50-53 inh
O=C(CCCc1nc2cccnc2n1Cc1ccccc1)NC1CCCCC1,112,.,.,-20
CC(C)c1ccc(NC(=O)C2CCCN(S(=O)(=O)c3ccc(Br)s3)C2)cc1 (stereo unspecified),107,85,82,-6
Cc1ccc(NC(=O)C(=O)NCCN2CCN(Cc3ccccc3F)CC2)cc1Cl,93,.,.,-26
COc1ccccc1Cn1c(=O)c2sccc2n2c(=S)[nH]nc12,103,.,.,-23
CC1CCN(c2nc(-c3ccccc3)ns2)CC1,104,82,89,-11
Cc1ccc(-n2nc(N3CCCN(C(=O)Nc4cc(C)cc(C)c4)CC3)ccc2=O)cc1,100,.,.,-38
O=C1Nc2ccc(F)cc2C1(O)Cc1ccncc1 (stereo unspecified),103,127,100,-9
COc1ccc(C(=O)COc2coc(CN3CCc4ccccc4C3)cc2=O)cc1,104,90,81,-40
O=C(NN1C(=O)CCC1=O)C(O)c1ccccc1 (stereo unspecified),106,90,98,-7
COc1ccccc1C(=O)Nc1ccccn1,.,71,86,1
C=CCn1c(=N)n(CCO)c2ccccc21,103,105,83,.
CC(C)CCNC(=O)CN1N=C(c2ccccc2F)c2cc(Cl)ccc2S1(=O)=O,108,.,.,9
Cc1ccc(S(=O)(=O)Nc2cc3c(cc2NCc2ccccc2)n(C)c(=O)n3C)c(C)c1,102,126,79,2
CN(Cc1ccccc1NCC(=O)Nc1ccc2c(c1)OCCO2)C1CCCCC1,.,112,105,-5
Cc1nc(C)c(-c2cc(C(=O)O)n[nH]2)s1,102,.,.,-23
Cc1ccccc1NC(=O)c1cnc2ccccn2c1=O,112,.,.,-60
CCC1(Cc2ccccc2)NC(=O)c2ccccc2O1 (stereo unspecified),104,104,109,-2
NNC(=O)CCc1nc2ccccc2[nH]1,100,65,97,-26
O=C(Nc1ccccc1NC(=O)c1cccs1)c1ccc(C(F)(F)F)cc1,.,97,82,-11
Cc1ccc(NC(=O)C2Nc3cc(F)ccc3S(=O)(=O)N2)c(C)c1 (stereo unspecified),103,.,.,-6

# Screens (PubChem)
